Bioassay records from PubChem.
SARS PLpro yeast – blocks SARS-CoV papain-like protease in a yeast assay | S. cerevisiae expressing SARS-CoV PLpro, growth rescue; control for the full effect not named in the record | Potency, µM (series often up to 32.9 µM), for the others: at the top dose activity, positive = growth rescue | 0.19% of 330,000 active | AID 485353; active means well fitted rising curve with a large enough effect; inconclusive means small, poorly fitted or top-dose-only effect; inactive means no such curve, though single readings can be large or run the other way; further: 0% is about no effect; nearly all actives have a fitted effect of over 55% in size; growth read by luminescence after 48 h
StopGo reporter – lowers the luciferase signal of an FMDV 2A StopGo reporter; Potency, µM (series often up to 57.9 µM), for inactives: top-dose signal change, negative = less light; human cells with a luciferase reporter of 2A StopGo recoding; control for the full effect not named in the record; 1.2% of 410,000 active; active = well fitted falling curve with a large enough effect; inconclusive = small, poorly fitted or top-dose-only effect; inactive = no such curve, though single readings can be large or run the other way; tested in HEK293T cells; further: on the % scale 0 is the no-effect control and ±100 the full control effect; nearly all actives have a fitted effect of over 45% in size; luciferase light after 4 h
RE007 growth inh – less growth of the S. pombe RE007 Vpr strain | S. pombe RE007 Vpr strain, BacTiter-Glo ATP luminescence, 24 h; control for the full effect not named in the record | Potency, µM (highest dose often 92.2 µM), for inactives: at the top dose activity change, negative = less growth | 0.21% of 360,000 active; active = well fitted falling curve with a large enough effect; inconclusive = small, poorly fitted or top-dose-only effect; inactive = no such curve, though single readings can be large or run the other way;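 further: on the % scale 0 is the no-effect control and ±100 the full control effect; nearly all actives have a fitted effect of over 50% in size; the assay follows cell death caused by Vpr and the record does not say whether a fall means rescue or toxicity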
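Fission yeast strain RE007, carrying one chromosomally integrated HIV-1 vpr copy, was seeded at OD 0.01 in PMG+AL medium with 23 nL pinned compound. After 24 h at 30 °C and 99% humidity, viability was read by BacTiter-Glo luminescence.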
* hit, by the source's call; ? = inconclusive; [ ] = dose if it differs, or a comment. Potency means the concentration at half of the fitted maximal effect.

SMILES	SARS PLpro yeast	StopGo reporter	RE007 growth inh
Nc1ccn(CC(=O)N[C@H](CO)Cc2c[nH]c3ccccc23)c(=O)n1	1%	-18%	-5%
CCCCn1c(N)c(N(C)C(=O)c2c(C)nn(-c3ccccc3)c2C)c(=O)[nH]c1=O	-2%	-3%	-1%
CCN(C[C@H]1N[C@@](CC)(C(=O)OC)[C@H]2C(=O)N(C)C(=O)[C@@H]12)S(=O)(=O)c1ccc(C)cc1	3%	-8%	6%
O=C(CSc1ccccc1C(=O)N1CCN(c2ccccc2)CC1)N1CCCC1	5%	28%	6%
COC(=O)[C@@]12CCCN1[C@H](c1ccc(SC3CCCCC3)cc1)[C@H]1C(=O)N(C)C(=O)[C@H]12	3%	?	-15%
CCN1CCN(S(=O)(=O)c2ccc(Cl)c(C(=O)N(C)Cc3ccccc3)c2)CC1	-3%	-3%	-2%
Cc1ccc(S(=O)(=O)/N=C/c2cc(Br)ccc2O)cc1	4%	-17%	-15%
C=CCN1CC[C@]23c4c5ccc(O)c4OC2[C@H](O)CC[C@@]3(O)[C@H]1C5 (some centres not stated)	-1%	-15%	-7%
O=C(C[C@H]1C/C=C\C[C@@H](Cc2ccc(F)cc2)C(=O)OC[C@H]2CCCN2C1=O)N[C@H](CO)Cc1ccccc1	-34%	-7%	-15%
CCCN=C1N(C)C[C@@H]2[C@@H]3C(=O)N(Cc4ccccc4)C(=O)[C@@H]3[C@](C)(C(=O)OC)N12	25%	-4%	2%
Cc1ccc2nc(-c3cccc(-c4cccc(Cl)c4)c3)c(NCc3ccccc3)n2c1	1%	35µM*	?
O=c1c(Br)c(N2CCOCC2)cnn1-c1ccccc1	-4%	35%[activator]	8%
OCC[C@H]1C[C@H](O)[C@@H](O)[C@@]2(CCCc3ccccc3O2)O1	-16%	13%	-8%
CCN1C[C@@H]2[C@@H]3C(=O)N(Cc4ccccc4)C(=O)[C@@H]3[C@](CC)(C(=O)OC)N2C1=NC1CCCCC1	-1%	-18%	4%
Cc1occc1C(=O)N/N=C/c1sc(N2CCOCC2)nc1-c1ccccc1	2%	-14%	2%
O=C(CCNC(=O)c1ccccc1Cl)Nc1cccc(S(=O)(=O)N2CCOCC2)c1	-5%	6%	4%
COC(=O)c1ccc(NC(=O)c2ccc(NC(=O)C3CCCO3)cc2)cc1 (configuration not stated)	-2%	-8%	-15%
O=C1NCCOC(=O)[C@@H](Cc2ccc(F)cc2)CC/C=C/C[C@H]1CC(=O)N(CCO)Cc1ccccc1	-2%	?	8%
CC(C)=CCC/C(C)=C/CNC(=O)C[C@H]1C[C@H](C(=O)N2CCOCC2)[C@@]2(C)c3[nH]c4cc(-c5ccco5)ccc4c3CCN2C1=O	4%	?	15%
Cc1ccc(OCCNC(=O)CCNS(=O)(=O)c2ccc3ccccc3c2)cc1	0%	-16%	19%

Single records, from the list above. Order of values: SARS PLpro yeast, StopGo reporter, RE007 growth inh
CCCN=C1N(C)C[C@@H]2[C@@H]3C(=O)N(Cc4ccccc4)C(=O)[C@@H]3[C@](C)(C(=O)OC)N12 is listed with 25%, -4%, 2%
OCC[C@H]1C[C@H](O)[C@@H](O)[C@@]2(CCCc3ccccc3O2)O1 is listed with -16%, 13%, -8%

Going on with the list:
SMILES	SARS PLpro yeast	StopGo reporter	RE007 growth inh
O=C(COC(=O)c1n[nH]c(=O)c2ccccc12)NC1CCCCC1	2%	-20%	-18%
COc1ccc(/C=C/C(=O)c2ccc([N+](=O)[O-])o2)cc1	-4%	25µM*	9%
CC1CC(C)CN(CCCNC(=O)c2cc3c(=O)[nH]c4ccccc4c3n2C)C1 (configuration not stated)	7%	6%	2%
CCOC(=O)C1=CN(Cc2cccc(F)c2)S(=O)(=O)NC1c1ccc(F)c(Cl)c1 (configuration not stated)	-54%	-11%	5%
Cc1cc(OCC(=O)N(C)C2CCCCC2)cc(C)c1Cl	-3%	54%[activator]	-16%
CCO[C@H]1c2c(ccc3ccc(=O)oc23)OC(C)(C)[C@H]1O	5%	1%	3%
O=C1C=C(c2ccc3[nH]ccc3c2)C[C@@H](c2ccc(Cl)cc2)C1	-3%	0%	-1%
CC(C)(C)OC(=O)C[C@H]1C/C=C\C[C@H](CC(=O)N(CCO)Cc2ccccc2)C(=O)NCCOC1=O	-6%	0%	-13%
Cc1[nH]c2ccc(F)cc2c1CCN(Cc1ccncc1)C(=S)Nc1ccc(F)cc1	0%	-13%	-9%
Cc1ccccc1CC(=O)Nc1cccc(S(=O)(=O)N2CCCC2)c1	-7%	-10%	-3%
COc1ccc(NC(=O)c2cc(C)cc(C)c2)cc1S(=O)(=O)N1CCCCC1	-2%	-18%	2%
COc1cc(OC)cc(C(=O)NCC(=O)NCCN2C(=O)S/C(=C\c3ccccc3Cl)C2=O)c1	4%	-5%	0%
CCC(=O)c1cn(/C(=C\C(=O)OC(C)(C)C)CCC(OC)OC)cc1CC	-1%	-13%	4%
CCN(CC(=O)Nc1ccc(NC(C)=O)cc1)C(=O)c1cccc2ccccc12	2%	-1%	4%
O=S(=O)(c1cccc(C(F)(F)F)c1)N1CCN(CC(O)COCc2ccccc2)CC1 (configuration not stated)	1%	?	5%
COC(=O)C1=C(c2c(C)noc2C)C[C@@H]2CC[C@H]1N2C(=O)NCc1ccco1	-3%	-13%	8%
COc1ccc(-c2cn3cc([N+](=O)[O-])ccc3n2)cc1OC	-12%	58%[activator]	-20%
CCCN1CCN(S(=O)(=O)c2ccc3c(c2)CCC(=O)N3)CC1	-1%	-23%	4%
CC(OC(=O)/C=C/c1ccccc1)C(=O)NC1CCCCC1C (configuration not stated)	12%	-10%	1%
Cc1oncc1-c1csc(-c2ccccc2)n1	-4%	57%[activator]	7%

Continued; the last six above are carried over.
SMILES	SARS PLpro yeast	StopGo reporter	RE007 growth inh
O=S(=O)(c1cccc(C(F)(F)F)c1)N1CCN(CC(O)COCc2ccccc2)CC1 (configuration not stated)	1%	?	5%
COC(=O)C1=C(c2c(C)noc2C)C[C@@H]2CC[C@H]1N2C(=O)NCc1ccco1	-3%	-13%	8%
COc1ccc(-c2cn3cc([N+](=O)[O-])ccc3n2)cc1OC	-12%	58%[activator]	-20%
CCCN1CCN(S(=O)(=O)c2ccc3c(c2)CCC(=O)N3)CC1	-1%	-23%	4%
CC(OC(=O)/C=C/c1ccccc1)C(=O)NC1CCCCC1C (configuration not stated)	12%	-10%	1%
Cc1oncc1-c1csc(-c2ccccc2)n1	-4%	57%[activator]	7%
COC(=O)C1=C(c2ccccc2OCc2ccccc2)C[C@@H]2CC[C@H]1N2C(=O)NCCc1ccc(F)cc1	4%	?	2%
CCOc1ccc2oc(C(=O)OCC(=O)N3CC(C)OC(C)C3)c(C)c2c1 (configuration not stated)	1%	5%	-4%
CCCCC(CC)C(=O)Nc1cc(C(=O)NCc2ccc(C)cc2)ccc1N1CCC2(CC1)CC(c1cccc(Br)c1)=NO2 (configuration not stated)	-4%	-19%	4%
Cc1ccc([C@H]2C(C(=O)O)=CC[C@@H](c3ccc(C)cc3)N2S(=O)(=O)c2ccccc2C)cc1	-3%	-16%	3%
O=C(NCc1ccccc1)c1ccc(CS(=O)(=O)Cc2ccccc2F)o1	6%	-22%	-2%
CCOc1ccc(NC(=O)COc2ccccc2C(=O)NCc2ccccc2)cc1	-5%	-29%	-7%
CC(=O)c1ccccc1OCC(=O)Nc1cccc(S(=O)(=O)N2CCCC2)c1	4%	?	12%
COc1ccc(S(=O)(=O)CCC(=O)N2CCN(c3ccccc3F)CC2)cc1	0%	8%	-8%
COc1ccc(N2CCN(C(=O)c3ccc(-c4nc5ccccc5s4)o3)CC2)cc1	-2%	?	5%
C[C@H](CO)N1C[C@H](C)[C@@H](CN(C)S(=O)(=O)c2ccccc2)Oc2c(NC(=O)C3CCCCC3)cccc2C1=O	-1%	38%[activator]	4%
CCN1C(=O)[C@H]2[C@@H](c3ccc(-c4cccc(Cl)c4)cc3)N[C@@](CC(C)C)(C(=O)OC)[C@H]2C1=O	-8%	-25%	1%
O=C(c1ccccc1)c1ccc(O)cc1O	-5%	8%	-22%
CCNC(=O)Nc1cc(S(=O)(=O)Nc2ccc(OC)cc2)ccc1N1CCOCC1	4%	-19%	-6%
COc1ccc(Cl)cc1-c1nc(SCC(=O)NC2CCS(=O)(=O)C2)n[nH]1 (configuration not stated)	-2%	-6%	8%
CCOC(=O)c1ccccc1NC(=O)COC(=O)C(CC(C)C)NC(N)=O (configuration not stated)	3%	-9%	-11%
O=C(CN1C(=O)NC2(CCCC2)C1=O)OCc1cccc(Br)c1	0%	-5%	1%
CN(CC(=O)Nc1ccc(F)c(F)c1F)C(=O)C1CCCC1	-5%	12%	-17%
CC(CNC(=O)COC(=O)c1ccco1)c1ccccc1 (configuration not stated)	-3%[6.58 µM]	-1%	13%
COc1ccc(N2CCN(C(c3cccs3)C(C)NS(C)(=O)=O)CC2)cc1 (configuration not stated)	-1%	-13%	-10%
Cc1ccc(C(=O)c2c3ccc(C(F)(F)F)cc3[n+]([O-])n2CCCN)cc1	-9%	-13%	7%
CCCCN(C(=O)c1ccc(N2CCCC2=O)cc1)c1c(N)n(CCC)c(=O)[nH]c1=O	-2%	-9%	11%
Cc1ccc([C@@H]2CC=C(C(=O)O)[C@H](c3ccc(Br)cc3)N2S(=O)(=O)c2ccc(C)cc2)cc1	-11%	-27%	4%
COc1ccc(C(=O)NNC(=O)c2cc(C)[nH]n2)cc1	0%	-14%	11%
COc1ccc(S(=O)(=O)N2CCCCCC2)cc1C(=O)OCC(=O)NC1CCS(=O)(=O)C1 (configuration not stated)	0%	-5%	5%
CN(Cc1cccs1)C(=O)C1CCN(S(=O)(=O)c2ccccc2)CC1	0%	-29%	15%
COc1cc(OC)cc(-c2c(-c3cccs3)c3cc(-c4cccc5[nH]ccc45)ccc3n2C)c1	-3%	-3%	9%
CCCS(=O)(=O)NCCc1cc2c(C)ccc(C)c2[nH]c1=O	1%	-5%	18%
CC(Sc1n[nH]c(-c2cccs2)n1)C(=O)Nc1ccccc1F (configuration not stated)	-5%	-19%	-3%
C[C@@H]1CN([C@@H](C)CO)C(=O)c2cc(N(C)C)ccc2O[C@@H]1CN(C)Cc1ccncc1	8%	5%	-9%
CCC1(c2ccccc2)NC(=O)N(Cc2cccc([N+](=O)[O-])c2)C1=O (configuration not stated)	3%	-17%	6%
O=C(COC(=O)Cn1[nH]c(=O)c2ccccc2c1=O)NNC(=O)c1ccc(Br)cc1	-4%	-5%	1%
COC(=O)c1cccnc1-n1c(=O)c2cccnc2n(Cc2cccc([N+](=O)[O-])c2)c1=O	4%	-16%	-13%
COc1ccc(/C=N/NC(=O)CNC(=O)c2ccc(S(=O)(=O)N3CCCC3)cc2)c(OC)c1	6%	-23%	26%
CC1(C)C(=O)Nc2ccccc2N1C(=O)COC(=O)c1cccnc1	-9%	-20%	-1%
COc1ccc(NC(=O)CCN=C2NS(=O)(=O)c3ccccc32)cc1S(=O)(=O)N(C)C	2%	-6%	14%
CCC(C(=O)NCc1ccccc1OC)c1ccccc1 (configuration not stated)	-3%	-14%	-3%
O=C(Cn1ccc(NC(=O)OCc2ccccc2)nc1=O)NCCCc1ccccc1	2%	-5%	24%
COc1cc(Cl)ccc1NC(=S)N(CCN1CCOCC1)C1CCN(C(C)=O)CC1	-1%	-1%	-3%
COc1cccc(-c2sc3ccc(OC)cc3c2-c2ccc(OCCN(C)C)cc2)c1	4%	?	-17%
COc1ccc(/C=C/C(=O)OCC(=O)c2ccc[nH]2)cc1	-1%	22%	2%
Cc1ccc(S(=O)(=O)N2CCN(C(=O)c3ccc(COc4ccccc4)o3)CC2)cc1	0%	?	6%
COc1ccc(/C=N/NC(=O)c2ccc(NS(=O)(=O)c3cccs3)cc2)cc1	5%	35%[activator]	-11%
O=C1N[C@@H](Cc2c[nH]c3ccccc23)COC(=O)[C@H](Cc2ccc(F)cc2)C/C=C\C[C@@H]1CC(=O)N(CCO)Cc1ccccc1	-2%	-9%	11%
CCOc1ccccc1-n1nnnc1SCC(=O)N1CCCC1=O	2%	14%	-4%
COc1ccc(NC(=O)CN(C)C(=O)CN2C(=O)NC3(CCCCC3)C2=O)cc1	6%	-17%	-4%
O=C(Cn1ccc(NC(=O)OCc2ccccc2)nc1=O)NCc1ccc2c(c1)OCO2	6%	30%[activator]	5%
Cc1nn(CC(=O)Nc2cccnc2)c(C)c1[N+](=O)[O-]	0%	3%	-2%
Cc1cc(C)n2nc(SCC(=O)Nc3ccc(F)c(F)c3F)nc2n1	8%	7%	1%
COc1ccc(/C=C/C(=O)Nc2ccc(C)c(S(=O)(=O)N3CCOCC3)c2)cc1	4%	?	-14%
CC1CCCCC1NC(=O)NC(=O)COC(=O)c1cncc(Br)c1 (configuration not stated)	-3%	-15%	-23%
O=C(COC(=O)c1ccc2ncsc2c1)NCc1ccccc1Cl	-2%	15%	8%
CC[C@H]1C/C=C\Cc2ccccc2[C@H](C(=O)C[C@@H](O)CC(C)=O)OC1=O	6%	0%	9%

Only part of the results is shown. The share of hits here may be higher or lower than overall.
